# Screening data deposited in PubChem by several laboratories.
# PrP 5UTR inh = inhibition of PrP 5' UTR reporter expression. cell-based PrP 5' UTR mRNA reporter, plate reader. inhibition, % (test concentration not listed). 0.35% of 340,000 active;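 active = every replicate at 50% or more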;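 also: 0 = median of the neutral control wells; tested in H4 reporter cells; numbers are from one replicate; inactives centre near -14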
# BJeLR viability = BJeLR cell viability loss | 0.17% of 300,000 active | BJeLR (HRASV12) viability, CellTiter-Glo ATP luminescence, 48 h; reference of the scale not given here | inhibition, % (test concentration not listed);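 active = replicate mean above 50%; inconclusive = above 50% but judged a plate artefact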;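 also: 50 nL library stock added to about 25 µL; numbers are from one replicate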
# RN4220 kill = S. aureus RN4220 growth inhibition; inhibition, % (no concentration beside the values); 0.33% of 330,000 active; AID 1259311; OD600, 16 h;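 active = z-score of -3 or lower and OD600 up to 0.18 on both plates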;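 also: plate controls were untreated cells for no effect and reference antibiotic for full effect; stock transfer was 100 nL into about 80 µL; one replicate is shown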
# Autofluor counter = flagged as autofluorescent in microsphere protease counterscreen; fluorescence intensity (concentration not given with the values); 3.1% of 360,000 active; compound autofluorescence counterscreen, microsphere flow cytometry; active compounds read high;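 active = at least 3 SD above the mean of all compounds, about 16000 in these data; inconclusive = too few beads counted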;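 also: 100 nL of 1 mM stock went into each well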
# Mtb hypoxia rep = Mtb hypoxia fluorescent reporter inhibition; M. tuberculosis hypoxia-regulated fluorescent reporter, fluorescence; fluorescence inhibition, % (test concentration not listed); 0.1% of 300,000 active;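 active = 35 to 45% if threefold the growth effect, above 45% if 1.5-fold the growth effect; inactive = the rest, general growth blockers included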;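 also: wells of about 50 µL received 100 nL stock; 0% = vehicle wells and 100% = reference inhibitor wells; whole bacteria with a GFP reporter of the hypoxia response; strong numbers were not always called active; many hits fall short of the cut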
# Sa ugtP lethal = growth inhibition of S. aureus ugtP deletion strain | AID 1259309 | 0.54% of 330,000 active | S. aureus RN4220 ugtP deletion, OD600 growth, 16 h; some inactives read as strong as hits | growth inhibition, % (concentration not given with the values);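 active = z-score under -3 and OD600 up to 0.15 on both plates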;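 also: plate controls were untreated wells for no effect and antibiotic for full effect; wells of about 80 µL received 100 nL stock; the first replicate is given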
# Mtb hypoxia rep growth = second read-out of Mtb hypoxia rep, no call of its own (marks repeat the call); growth inhibition, %; measured here: M. tuberculosis growth (absorbance);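 0% = vehicle and 100% = reference antibiotic; read after six days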
# * hit, by the source's call; u = inconclusive; x = not tested or not shown. Compounds were not picked by outcome; about 4% have a hit in one of these screens.
# Start of the listing, in advance:
SMILES,PrP 5UTR inh,BJeLR viability,RN4220 kill,Autofluor counter,Mtb hypoxia rep,Mtb hypoxia rep growth,Sa ugtP lethal
O=C(COC(=O)C1COc2ccccc2O1)NC(=O)Nc1ccc2c(c1)OCCO2 (configuration not stated),-28,-4,-2.4,2532,12,5,7
COc1ccc(C2CC(=O)C=C(c3ccc4[nH]ccc4c3)C2)cc1OC (configuration not stated),x,x,0.7,x,0,12,-3
COc1ccc(CC(=O)OCC(=O)N2CCN(S(=O)(=O)c3ccc(C)cc3C)CC2)cc1OC,-19,x,1.6,4351,8,8,3
CCn1cc(C(=O)OCC(=O)c2cc(C)n(-c3ccc(OC(F)F)cc3)c2C)c(=O)c2ccc(C)nc21,-5,4,5.9,2371,8,-1,1

# The list itself, from the first entry:
SMILES,PrP 5UTR inh,BJeLR viability,RN4220 kill,Autofluor counter,Mtb hypoxia rep,Mtb hypoxia rep growth,Sa ugtP lethal
O=C(COC(=O)C1COc2ccccc2O1)NC(=O)Nc1ccc2c(c1)OCCO2 (configuration not stated),-28,-4,-2.4,2532,12,5,7
COc1ccc(C2CC(=O)C=C(c3ccc4[nH]ccc4c3)C2)cc1OC (configuration not stated),x,x,0.7,x,0,12,-3
COc1ccc(CC(=O)OCC(=O)N2CCN(S(=O)(=O)c3ccc(C)cc3C)CC2)cc1OC,-19,x,1.6,4351,8,8,3
CCn1cc(C(=O)OCC(=O)c2cc(C)n(-c3ccc(OC(F)F)cc3)c2C)c(=O)c2ccc(C)nc21,-5,4,5.9,2371,8,-1,1
O=C(NC1CCCC1)C(c1ccncc1)N(C(=O)Cc1cccs1)c1ccccc1 (configuration not stated),-61,4,3.5,2845,1,0,-1
C=CCN(C(=O)CNC(=O)c1ccco1)C(C(=O)NC1CCCCC1)c1ccccc1F (configuration not stated),2,-8,6.5,4563,6,7,-3
CCOc1cc(C2Nc3ccccc3C(=O)N2c2ccccc2)c(Br)cc1OCC(=O)O (configuration not stated),-14,9,1.4,1996,5,-1,6
O=C(Nc1ccc2c(c1)C(=O)OC2)c1ccccc1Cl,-26,7,1.3,3976,5,15,2
Cc1nc(N2CCOCC2)sc1C=O,28,-7,3.8,4354,-8,7,9
Cc1ccc(S(=O)(=O)CCC(=O)OCC(=O)N2CCc3ccccc32)cc1,-13,0,1.7,4003,2,-10,7
COc1ccc(/C=N/OCC(=O)N(Cc2ccccc2)c2ccccc2C(=O)O)cc1,-12,-5,x,2305,x,x,x
CCN(CC)CCN(C)Cc1ccc(Br)cc1,-11,-5,-2.5,5674,-5,12,0
CS(=O)(=O)c1ccccc1-c1nnc(-c2ccc(Cl)cc2)o1,-17,-1,4.3,2210,1,-3,-3
O=C(NN=C1CCN(Cc2ccccc2)CC1)c1ccccc1,-22,4,4.3,2260,16,12,6
Cc1nn(CCC#N)c(N)c1C1(O)C(=O)Nc2c(Cl)cc(Cl)cc21 (configuration not stated),-19,5,8.0,4662,10,20,13
COc1ccc2cc(C(=O)N(C)Cc3ccccc3)[nH]c2c1,-31,4,4.7,3730,-4,0,4
COCCN(C(=O)C(=O)NC1CCCC1)C(C(=O)NC1CCCC1)c1ccccc1F (configuration not stated),-3,-5,0.9,4268,6,1,2
O=C1C2C3C=CC(C4CC34)C2C(=O)N1c1cc(Cl)ccn1 (configuration not stated),-12,-5,2.7,4387,5,11,10
Cc1nnc(SCC(=O)N(CCC#N)c2ccc3c(c2)OCCO3)s1,8,x,2.8,x,-3,6,4
CCOC(=O)c1cc(NC(=O)c2ccco2)ccc1N1CCOCC1,-4,x,3.6,4326,-1,3,-11
CCc1nnc(NC(=O)c2ccc(COc3ccccc3Cl)o2)s1,-10,-7,3.8,4192,11,-2,-4
O=c1c2ccccc2nc(/C=C/c2ccccc2F)n1-c1ccccc1O,1,-2,98*,2777,-11,-3,99*
N#Cc1ccc(C23CC4(C2)C(CN(Cc2ccc(C(F)(F)F)cc2)C4c2ccccc2)C3c2ccccc2)cc1 (configuration not stated),x,x,0.3,x,2,-3,-2
N#Cc1c(N2CCSCC2)nsc1-c1ccccc1Cl,-20,6,6.3,4565,12,8,43
O=C1CCCN1CCC1CCN(C2CC(=O)N(c3ccc(F)cc3)C2=O)CC1 (configuration not stated),-48,-7,9.9,11189,15,3,8
# (continued)
SMILES,PrP 5UTR inh,BJeLR viability,RN4220 kill,Autofluor counter,Mtb hypoxia rep,Mtb hypoxia rep growth,Sa ugtP lethal
COCc1cc(C)nc(N2CCN(Cc3ccccc3)CC2)c1C#N,-13,-10,5.5,4486,x,x,2
CN1CCN(S(=O)(=O)c2cccc(C(=O)NCCC3=CCCCC3)c2)CC1,-10,15,3.6,u,3,-7,4
CC(=O)Nc1ccc(NC(=O)CSc2ccc(-c3ccco3)nn2)cc1,1,5,-2.4,4286,-3,3,1
Cc1cc2c3c([nH]c2cc1S(=O)(=O)NCc1ccc(CN2CCCCCC2)o1)CCCC3=O,-15,5,2.9,5247,4,-7,7
CCN(C(=O)CSc1nnc(-c2ccccc2F)n1N)c1c(N)n(Cc2ccccc2)c(=O)[nH]c1=O,-14,x,5.2,3845,6,5,4
CC1(C)CCCC(C)(C)N1CC(O)COCCOc1ccc(Br)cc1 (configuration not stated),-13,-1,1.7,2504,9,-3,16
Cc1ccc(/C=C2\SC(=S)N(CC(=O)Nc3ncc(Cc4ccccc4Cl)s3)C2=O)cc1,x,2,7.4,x,-1,-1,4
O=C(Nc1ccccn1)c1ccc([N+](=O)[O-])cc1Cl,-27,0,-0.8,1999,-7,7,2
COc1ccccc1-n1cn[nH]c1=S,-14,6,1.7,4641,4,-4,4
CN1CCC(N(C)C(=S)Nc2ccc(SC(F)F)cc2)CC1,-25,-3,1.7,8872,14,15,1
O=C(CN(c1ccc(F)cc1)S(=O)(=O)c1ccc2c(c1)OCCO2)NCc1ccncc1,-16,0,-0.6,x,5,6,-3
CCC(C)NC(=O)N[C@@H](CCSC)C(=O)O (some centres not stated),-18,-9,4.4,11184,8,8,5
O=C(NCC1CCCCC1)c1cccc(-c2ccc(O)cc2)c1,9,3,-4.8,6062,0,28,-6
O=C(c1cccc(S(=O)(=O)N2CCCc3ccccc32)c1)N1CCN(c2ccccc2)CC1,17,x,7.1,4033,4,6,-5
COC(=O)c1ccc(S(=O)(=O)c2ccc(Cl)cc2)c(N)c1,3,0,1.2,3818,1,8,-8
CCc1ccc(-n2c(SCC(=O)Nc3cc(C)[nH]n3)nc3[nH]ncc3c2=O)cc1,7,-3,-3.7,3209,5,11,-1
CCC(=Nc1ccccc1NC(C)=O)c1c(O)n(C)c(=O)n(C)c1=O,-31,-7,3.8,11505,21,7,2
Cc1ccc(CCNS(=O)(=O)c2cc(Br)cnc2N)cc1,-29,-1,9.0,5274,3,0,1
Cc1ccn2c(=O)nc(SCC(=O)c3ccc(Cl)cc3)nc2c1,-20,-6,5.6,u,6,-1,-6
COCCNc1nnc(Cc2ccc(OC)c(OC)c2)c(=O)[nH]1,x,2,5.3,2953,-9,-6,5
CCOc1ccccc1NC(=O)CSc1nnnn1-c1ccccc1,-10,8,3.1,2428,x,x,2
COc1cccc(C(=O)OCCCOC(=O)c2cccc(OC)c2OC)c1OC,-16,-9,2.9,5104,12,3,10
CCC1(CC)NC(=O)N(CC(=O)OCC(=O)Nc2cc(OC)ccc2OC)C1=O,-20,x,-0.1,3949,2,1,1
CCc1ccc(CCC(=O)Nc2nccs2)o1,-13,8,2.9,21884*,8,3,3
N#CC1=C(N)C2=CCCC[C@H]2[C@H](c2ccccc2)C1(C#N)C#N,-31,2,12,2169,10,7,-16

# An excerpt of these results, field by field.
Cc1ccn2c(=O)nc(SCC(=O)c3ccc(Cl)cc3)nc2c1
- PrP 5UTR inh: -20
- BJeLR viability: -6
- RN4220 kill: 5.6
- Autofluor counter: u
- Mtb hypoxia rep: 6
- Mtb hypoxia rep growth: -1
- Sa ugtP lethal: -6
COCCNc1nnc(Cc2ccc(OC)c(OC)c2)c(=O)[nH]1
- PrP 5UTR inh: x
- BJeLR viability: 2
- RN4220 kill: 5.3
- Autofluor counter: 2953
- Mtb hypoxia rep: -9
- Mtb hypoxia rep growth: -6
- Sa ugtP lethal: 5
CCOc1ccccc1NC(=O)CSc1nnnn1-c1ccccc1
- PrP 5UTR inh: -10
- BJeLR viability: 8
- RN4220 kill: 3.1
- Autofluor counter: 2428
- Mtb hypoxia rep: x
- Mtb hypoxia rep growth: x
- Sa ugtP lethal: 2
COc1cccc(C(=O)OCCCOC(=O)c2cccc(OC)c2OC)c1OC
- PrP 5UTR inh: -16
- BJeLR viability: -9
- RN4220 kill: 2.9
- Autofluor counter: 5104
- Mtb hypoxia rep: 12
- Mtb hypoxia rep growth: 3
- Sa ugtP lethal: 10

# Next compounds follow:
SMILES,PrP 5UTR inh,BJeLR viability,RN4220 kill,Autofluor counter,Mtb hypoxia rep,Mtb hypoxia rep growth,Sa ugtP lethal
COCCCNC(=O)Cn1cc(C(C)=O)c2ccccc21,-20,-11,1.6,20880*,-4,-7,1
Cc1ccc(S(=O)(=O)C(C)C(=O)NCCS(=O)(=O)c2ccc(Cl)cc2)cc1 (configuration not stated),-10,-4,2.4,2071,13,-6,5
Cn1c(CC(=O)Nc2ccc(Cl)cc2)nnc1SCC(=O)N1CCOCC1,-12,0,2.9,3628,1,0,6
COc1ccc(CC(=O)Nc2c3c(nn2C(C)(C)C)CS(=O)(=O)C3)cc1,-28,-2,1.6,5401,8,7,0
COc1ccc(CNC(=O)Cn2ccc3cc(S(=O)(=O)N4CCCC4)ccc32)cc1OC,-13,-2,3.7,5529,0,4,2
Cc1csc(CNC(=O)c2ccc(OC3CCN(CCc4ccccc4)CC3)cc2)n1,1,8,-0.5,6306,7,-2,4
c1ccc(-c2ccnc3ncnn23)nc1,-22,-17,2.6,3758,-1,5,2
O=C(COc1cccc(C(F)(F)F)c1)Nc1nnc(C2CC2)s1,-21,x,-3.2,3608,13,12,3
Cc1ccc(OC(C)C(=O)Nc2ccc(S(=O)(=O)Nc3cc(C)on3)cc2)cc1 (configuration not stated),-1,-11,3.8,21520*,13,-1,-3
CCOC(=O)CNC(=O)CNC(=O)c1ccc(OCC(C)C)cc1,1,6,2.2,3133,10,4,0
CCCC1=C(C(=O)OCC)C(c2ccc(NC(C)=O)cc2)NC(=O)N1 (configuration not stated),-4,3,5.0,7073,-6,5,-1
O=C(CCN1C(=O)/C(=C/c2ccccc2Cl)SC1=S)N1CCOCC1,-6,28,6.6,5520,17,22,3
COc1ccc(S(=O)(=O)NCC2CCCN(C(=O)CN3CCCCC3)C2)cc1 (configuration not stated),-11,-3,0.5,3624,2,3,7
CCCOc1ccc(C(=O)Nc2ccc(S(=O)(=O)N3CCN(C)CC3)cc2)cc1,-15,-16,-2.4,4177,-3,16,9
O=C(Nc1ccc2oc(-c3ccncc3)nc2c1)c1ccccc1F,-32,8,-1.6,5025,x,x,2
COc1cc2c(cc1OC)CN(C(=O)/C=C/c1ccccc1[N+](=O)[O-])CC2,-23,-7,6.1,3840,-4,5,0
c1ccc2oc(-c3csc(NCC4CCCO4)n3)cc2c1 (configuration not stated),-84,-10,20,4258,7,9,-1
COc1ccc(C(=O)CN2CCN(c3ccc(F)cc3)CC2)cc1OC,-8,-7,-0.4,2108,x,x,2
COC(=O)c1cn(-c2ccccc2)c(=O)c2ccccc12,-11,-6,0.5,4136,-7,6,-2
COc1ccc(S(=O)(=O)N2CCOCC2)cc1OC,-13,1,5.7,2479,4,5,2
CC(=O)c1ccc(N2CCN(CC(=O)Nc3ccccc3C(=O)NC3CC3)CC2)c(F)c1,-13,x,4.6,3973,4,1,5
CN(C)S(=O)(=O)c1ccc(Nc2ccc(-c3ccc4c(c3)OCCO4)nn2)cc1,-13,11,2.0,5600,14,3,9
CN1C(=O)C(C)(C)c2cc(S(=O)(=O)N3CCCC(C(=O)NCc4ccc(Cl)cc4)C3)ccc21 (configuration not stated),-39,-5,3.6,5659,0,-1,15
Cc1nc2sccn2c(=O)c1S(=O)(=O)Nc1ccc(N2CCN(S(C)(=O)=O)CC2)cc1,-6,-1,-0.5,4971,12,0,11
CN(C(=O)CSc1nc2ccccc2c(=O)n1-c1ccc(F)cc1F)C1CCS(=O)(=O)C1 (configuration not stated),-36,x,0.3,3975,6,2,4

# Single entries from above:
# COC(=O)c1cn(-c2ccccc2)c(=O)c2ccccc12 @ Mtb hypoxia rep growth: 6
# Cn1c(CC(=O)Nc2ccc(Cl)cc2)nnc1SCC(=O)N1CCOCC1 @ BJeLR viability: 0
